# Compound activity: PubChem, National Center for Advancing Translational Sciences (NCATS)
# AmpC nodet inh – blocks E. coli AmpC beta-lactamase in absence of detergent. P00811. AID 585. Potency, µM (doses to about 28.7 µM), without a hit: top-dose activity change, negative = inhibition. AmpC nitrocefin hydrolysis, absorbance 480 nm, no detergent; potencies from a single point are estimates. 71,000 tested, 1.8% active; active = falling curve, for most hits resting on a single point; inconclusive = weak or doubtful change; inactive = flat or rising curve; also: % of control where 0% means no effect; about half of the hits show no inhibition at the top dose; a quarter of the inactives give rising signals
# Target sequence (P00811 whole entry, looked up): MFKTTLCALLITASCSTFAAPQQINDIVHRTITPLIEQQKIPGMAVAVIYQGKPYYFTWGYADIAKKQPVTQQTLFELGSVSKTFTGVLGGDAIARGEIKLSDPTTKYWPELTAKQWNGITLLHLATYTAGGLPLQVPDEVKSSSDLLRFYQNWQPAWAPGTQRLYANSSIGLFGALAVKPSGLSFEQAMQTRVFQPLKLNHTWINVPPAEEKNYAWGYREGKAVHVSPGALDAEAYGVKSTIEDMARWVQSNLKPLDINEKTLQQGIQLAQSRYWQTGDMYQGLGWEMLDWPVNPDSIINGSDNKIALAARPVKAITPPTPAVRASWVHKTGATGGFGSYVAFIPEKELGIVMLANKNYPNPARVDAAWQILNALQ
#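 AmpC in 20 mM phosphate buffer pH 7.0 was preincubated 15 min at room temperature with compounds. Nitrocefin (800 uM stock) was then added and hydrolysis followed at 480 nm every 20 s for 4 min.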
# The depositor's hits bear a star; ? = inconclusive; [ ] = remark or other dose. Potency is read from the fitted curve at half-maximal effect. Some of the compounds tested; rates above refer to the full screens.
SMILES,AmpC nodet inh
CS(=O)(=O)Nc1cccc(-c2ccc3ncnc(Nc4ccccc4)c3c2)c1,-9.8%
O=C1C(=O)N(CCCn2ccnc2)C(c2cccnc2)/C1=C(/O)c1ccc(Br)cc1 (stereo unspecified),-8.2%
CCOC(=O)c1sc2cccc(F)c2c1N,11.5%
COc1cc(-c2nnc(-c3ccc(N4CCOCC4)cc3)o2)cc(OC)c1OC,138.3%
OCCN1CCN(CC#CCn2c3ccccc3c3ccccc32)CC1,115.2%
COc1ccc(C2C(C(=O)Nc3cc(C)on3)c3ccccc3C(=O)N2C)cc1 (stereo unspecified),3.5%
CCN(C1CCCCC1)S(=O)(=O)c1ccc(S(=O)(=O)NCc2ccncc2)cc1,55.4%
O=C(COC(=O)Cc1cccs1)Nc1ccccc1,-11.7%
CCC1(c2ccc(F)cc2)NC(=O)N(CC(=O)N2CCOCC2)C1=O (stereo unspecified),-4.9%
CCCCN1CCC(CCC(=O)c2cc(Cl)c(N)cc2OC)CC1,14.2%
CN(CCCn1c(=S)[nH]c2ncccc2c1=O)Cc1ccccc1,4.8%
CS(=O)(=O)N1CCN(C(=O)c2ccccc2)C1,-13.1%
N=C(N)N1CCc2ccccc2C1,-4.1%[12.8 µM]
Cn1c(=O)[nH]c(=O)c2c1nc(NCCCO)n2CCCc1ccccc1,0.1%
CC1(C)CC(=O)C(C(c2cccc(O)c2O)C2C(=O)CC(C)(C)CC2=O)C(=O)C1,6.3%[5.75 µM]
CNc1ncnc2ccc(-c3ccccc3C)cc12,25.9%
CC(=O)NCCOc1cccc(OCCNC(C)=O)c1,-4.8%
Cc1ccc(S(=O)(=O)N2CCN(C(=O)N3CCOCC3)C2C(C)C)cc1 (stereo unspecified),22.5%
O=C(Nc1ccc(NC(=O)C2CCCN2C(=O)OCc2ccccc2)cc1)c1ccco1 (stereo unspecified),-3.7%
O=C(CSc1ccccc1)Nc1ccccc1N1CCOCC1,-4.1%
O=C(c1cnccn1)N1CCC2(CC1)CN(c1cccc(-c3ccccc3)c1)C2,163.4%
CC(C)C1CC(=O)NC(SCC(=O)Nc2ccc(Br)cc2)=C1C#N (stereo unspecified),-20.6%
COc1ccc(-n2c(=O)cnc3cnc(N4CCN(C)CC4)nc32)cc1,3.5%
O=C(CN(c1ccc(F)cc1)S(=O)(=O)c1ccc2c(c1)OCCO2)Nc1cccnc1,15.5%
O=C1C2CCCN2C(c2ccc(F)c(F)c2)N1c1cccc(Cl)c1 (stereo unspecified),45.2%
CC(C)NC(=O)N1CCCC2(CCN(C(=O)c3ccncc3)CC2)C1,0.9%
COCCN(CCOC)S(=O)(=O)c1ccc(C(=O)NC2CCN(Cc3ccccc3)CC2)cc1,35.9%
CCOc1ccccc1C(=O)N(Cc1ccco1)C1CCS(=O)(=O)C1 (stereo unspecified),5.9%
CCOC(=O)CCCCC(=O)c1[nH]c(=O)[nH]c1Cn1cnc2ccccc21,25.1%
Cc1nc(SC2CC(=O)N(c3ccccc3)C2=O)nc2c1CCCC2 (stereo unspecified),34.0%
Cc1nn(CCCC(=O)N2CCc3ccccc3C2)c(=O)c2cc3sccc3n12,115.6%
C=C1CC[C@@H](O)C/C1=C/C=C1\CCC[C@]2(C)[C@@H]1CC[C@H]2[C@@H](C)/C=C\[C@@H](C)C(C)C,152.6%
CCCN(Cc1ccccc1)S(=O)(=O)c1ccc(N2C(=O)CCC2=O)cc1,66.0%
Cn1c(N)c(C(=O)COC(=O)CCC(=O)c2cccs2)c(=O)n(C)c1=O,-4.9%
O=C(CN1CCC(c2nc3ccccc3[nH]2)CC1)NCc1ccc2c(c1)OCO2,6.9%
COc1ccc(CCN2C(=O)C(O)=C(C(=O)c3ccco3)C2c2cccs2)cc1OC (stereo unspecified),-8.2%
CC(C)Cn1cc(C(=O)NCC2CCCO2)c2c3ccccc3n(C)c2c1=O (stereo unspecified),76.7%
CS(=O)(=O)N1CCC[C@@]2(CCN(C(c3ccccc3)c3ccccc3)C2)C1,122.2%
COCCn1c(=O)c(-c2cccs2)nc2cnc(N(C)C)nc21,20.8%
C=C(C)C1CC=C(C)C(OC(C)=O)C1 (stereo unspecified),-0.7%
O=C(COC(=O)c1ccccc1Oc1ccccc1)NCc1ccco1,13.4%
COCc1nc2ccccc2n1Cc1ccccc1,27.9%
CO[C@@H](C)[C@](O)(C(=O)OCC1=CCN2CC[C@@H](O)[C@H]12)C(C)C,-9.3%[12.8 µM]
CCOc1ccccc1Oc1c(C)oc2c(CN3CCN(CCO)CC3)c(O)ccc2c1=O,23.7%
O=C(NCc1ccccn1)c1ccc(/C=N/O)nc1,-4.6%
CCc1ccc(NC(=O)CN(c2ccc3c(c2)OCO3)S(=O)(=O)c2c(C)noc2C)cc1,-1.4%
CCn1c(C(=O)OC)cc2c1ccn2-c1ccc(F)cc1,-5.3%
Cc1cc2c(=O)n(CC(=O)NCC(=O)N3CCN(Cc4ccccc4)CC3)cnc2s1,30.0%
Cc1ccsc1C(=O)Nc1ccc(C(=O)O)cc1,-8.9%
Cn1c(=O)cc(OCC(=O)N2CCN(Cc3ccc4c(c3)OCO4)CC2)c2ccccc21,127.2%
CCOC(=O)C1CCN(C(=O)Nc2ccc(OC)c(OC)c2)CC1,7.0%
Cc1ccc(C(c2nnnn2C(C)(C)C)N2CCc3ccccc3C2)cc1 (stereo unspecified),7.5%
CCc1cc2c(SCC(=O)c3cccs3)ncnc2s1,-18.0%
C(#CCN1CCOCC1)COC/C=C/c1ccccc1,58.3%
CCOC(=O)C1=C(C)NC(=O)C1(NC(=O)c1cccnc1)C(F)(F)F (stereo unspecified),3.1%
CCOc1ccc(-n2nc(C(=O)N3CCOCC3)c3ccccc3c2=O)cc1,-9.7%
COc1ccc(-c2cc(C(F)(F)F)nc(SCC(=O)N3CC(C)OC(C)C3)n2)cc1OC (stereo unspecified),91.1%
O=C(O)C1CCC(CNc2c(NC3CCCCC3)c(=O)c2=O)CC1 (stereo unspecified),3.9%
CCCc1nc2ccccc2c2nc(N)nn12,12.0%
COc1cc(Nc2cc(C)nc3nc(C)nn23)cc(OC)c1OC,-4.1%
# Carrying on.
SMILES,AmpC nodet inh
Cc1ccc(S(=O)(=O)N2CCN(C(=O)c3c(C)nn(-c4ccccc4)c3Cl)CC2)cc1,116.6%
C=CCn1c(Cc2ccc(OCC)cc2)nnc1SCC(N)=O,9.3%
Cn1c(SCC(=O)c2ccc3c(c2)OCO3)nnc1-c1ccccn1,35.7%
CC(C)n1nnnc1SCC(=O)Nc1ccccc1N1CCOCC1,15.9%
Nc1cc(C(F)(F)F)ccc1C(=O)O,1.1%
Cc1ccc2c(c1)NC(=O)C(CC(=O)NCCN(C)C)O2 (stereo unspecified),3.16µM*[single pt active]
CC(C)(C)c1ccc(S(=O)(=O)N2CCCCC2C(=O)NCc2ccccn2)cc1 (stereo unspecified),116.5%
CCCCCCCC/C=C\CCCCCCCC(=O)NCc1ccc(O)c(OC)c1,19.2%
CC1(C)CC(n2[nH]c(=O)c3c2NC(=O)CSC3c2ccc(F)cc2)CCO1 (stereo unspecified),4.6%
CCOC(=O)C(CCSC)NC(=O)CN (stereo unspecified),-6.2%
CC1CCN(C(=O)C2CCCN(S(C)(=O)=O)C2)CC1 (stereo unspecified),0.4%
CCN1CCCCC(=N/O)/C(=N/O)CCCC1,-0.3%[5.75 µM]
COc1ccc(C2N(c3cccc(Cl)c3)C(=O)C3CCCN32)cc1 (stereo unspecified),34.0%
Cc1cc(C(=O)Nc2sc3c(c2C#N)CCCCC3)cs1,?
Cc1ccc(C)c(NS(=O)(=O)c2ccc(OCC(=O)N3CCOCC3)cc2)c1,32.7%
COc1cccc(Cn2nnc(C(=O)NCc3ccc(F)cc3)c2N)c1,3.98µM*[single pt active]
COc1ccc(C2CC(c3ccc(Cl)cc3Cl)n3nc(N)nc3N2)cc1 (stereo unspecified),107.8%
CCCC(=O)Nc1ccc2c(c1)nc1n2CCSC1,-4.9%
Cc1cc(-c2csc(N)n2)c(C)n1CCc1ccccc1,-7.8%
Cc1cc(C)nc(-n2nc(C)cc2NC(=O)c2ccc(Br)o2)n1,26.7%

# Pulled by compound from the list above:
SMILES,AmpC nodet inh
Cc1cc(-c2csc(N)n2)c(C)n1CCc1ccccc1,-7.8%
CCOc1ccccc1Oc1c(C)oc2c(CN3CCN(CCO)CC3)c(O)ccc2c1=O,23.7%
CO[C@@H](C)[C@](O)(C(=O)OCC1=CCN2CC[C@@H](O)[C@H]12)C(C)C,-9.3%[12.8 µM]
COc1cc(Nc2cc(C)nc3nc(C)nn23)cc(OC)c1OC,-4.1%
Cn1c(=O)cc(OCC(=O)N2CCN(Cc3ccc4c(c3)OCO4)CC2)c2ccccc21,127.2%
CS(=O)(=O)Nc1cccc(-c2ccc3ncnc(Nc4ccccc4)c3c2)c1,-9.8%
CCCc1nc2ccccc2c2nc(N)nn12,12.0%

# (next part)
SMILES,AmpC nodet inh
O=C(CCn1c(=S)[nH]c2cc3c(cc2c1=O)OCO3)N1CCN(C2CCCCC2)CC1,10.1%
COC(=O)c1[nH]c(C)c(/C(O)=C2\C(=O)C(=O)N(CCN(C)C)C2c2cccc(OC)c2OC)c1C (stereo unspecified),1.2%
CCOC(=O)C1C(=O)CC(C)(O)C(C(=O)OCC)C1c1ccco1 (stereo unspecified),9.8%
C(=N\c1nc2ccccc2[nH]1)/c1cccs1,-15.3%
CCc1ccccc1N1C[C@@]23C=C[C@@H](O2)C(C(=O)OCC(C)C)[C@H]3C1=O (stereo partly specified),20.9%
Cc1c(N=C/C=C/c2ccccc2)c(=O)n(-c2ccccc2)n1C,42.1%
Cc1noc(C)c1S(=O)(=O)N(CC(=O)N1CCn2c1nc1ccccc12)c1ccc(C(C)C)cc1,3.98µM*[single pt active]
O=C(c1cnccn1)N1CCC2(CC1)CN(c1ccccn1)C2,11.2%
CCCc1cc(C(=O)Nc2sc3c(c2C(=O)OCC)CCCC3)no1,3.98µM*[single pt active]
CNC(=O)[C@@H]1O[C@@H](n2cnc3c(NCc4cccc(I)c4)ncnc32)[C@H](O)[C@@H]1O,62.5%
Cc1nnc(NC2=NCCC2)s1,-2.1%
CN1CCN(C(=O)c2ccc3c(c2)N(Cc2ccc(Cl)cc2)C(=O)c2ccccc2S3=O)CC1 (stereo unspecified),122.3%
CCOc1ccccc1C1C(C#N)=C(N)Oc2n[nH]c(CC)c21 (stereo unspecified),9.9%
Cc1ccsc1C=Nc1ccc(O)cc1,10µM*
COc1ccc(C(=O)N2CCC3(CCN(Cc4ccncc4)CC3)CC2)cc1,9.0%
OC(CN1CCN(c2ccccn2)CC1)Cn1c2ccccc2c2ccccc21 (stereo unspecified),90.0%
Cc1ccccc1-c1nc(CN2CCC(C(=O)NCCC3=CCCCC3)CC2)c(C)o1,103.0%
CCCS(=O)(=O)N1CCN(C(=O)c2ccco2)CC1,-3.2%
Cc1nc2sc(C(c3cccs3)N3CC(C)CC(C)C3)c(O)n2n1 (stereo unspecified),-3.5%
C/C=C/c1ccc(Oc2nnnn2-c2ccc(C(N)=O)cc2)c(OC)c1,28.2%

# Part of the list above, as labelled records:
> COc1ccc(C(=O)N2CCC3(CCN(Cc4ccncc4)CC3)CC2)cc1
  AmpC nodet inh = 9.0%

> OC(CN1CCN(c2ccccn2)CC1)Cn1c2ccccc2c2ccccc21 (stereo unspecified)
  AmpC nodet inh = 90.0%

> Cc1ccccc1-c1nc(CN2CCC(C(=O)NCCC3=CCCCC3)CC2)c(C)o1
  AmpC nodet inh = 103.0%

> CCCS(=O)(=O)N1CCN(C(=O)c2ccco2)CC1
  AmpC nodet inh = -3.2%

# Further records
SMILES,AmpC nodet inh
O=C(CSc1nc(-c2ccccc2)cs1)NC(=O)NCc1ccco1,?
CN(C)c1ncc2nc(CCc3ccccc3)c(=O)n(-c3ccccc3)c2n1,9.6%
CCn1cc(C(=O)Nc2cccc(NC(C)=O)c2)c2cc(OC)c(OC)cc2c1=O,52.6%
O=C(CCN1C(=O)c2ccncc2C1=O)NCc1ccc(Cl)cc1,15.4%
CC1CCC(NC(=O)c2ccc(CS(=O)(=O)Cc3ccccc3F)o2)CC1 (stereo unspecified),24.4%
O=C(O)c1cc(NCc2ccc3c(c2)OCO3)ccc1N1CCOCC1,8.2%
CC(=O)c1ccc(NC(=O)C2CC(c3ccc(F)cc3)=NO2)cc1 (stereo unspecified),9.9%
C/C(CC/C(C)=N/O)=N/O,-11.0%[5.75 µM]
O=C(CC(=O)N1CCN(c2ccccn2)CC1)Nc1ccc2nc3n(c(=O)c2c1)CCCCC3,82.8%
COc1ccc(CCNC(=O)C2CCN(Cc3nc(-c4cccc(Cl)c4)oc3C)CC2)cc1OC,147.8%
COC(=O)CNC(=O)C1CCN(c2nc(C)cc(C)n2)CC1,5.6%
CCOc1ccc(C2CC(c3cccc(OC)c3)Nc3ncnn32)cc1 (stereo unspecified),79.3%
O=C(O)C1C2C=CC3(O2)C1C(=O)N1c2ccccc2C2OCCC2C13 (stereo unspecified),-0.3%
CCOc1ccc(NC2=NCCC(=O)N2Cc2cccs2)cc1,30.0%
COc1ccc(Oc2cn[nH]c2-c2ccc(O)cc2O)cc1,-20.6%
CC(C)NC(=O)N1CC2(CCN(C(=O)c3cccn3C)CC2)C1,13.9%
CCn1c(Cn2nnc(-c3ccccc3)n2)nnc1SCC(=O)Nc1ccc(N(C)C)cc1,47.5%
Cn1c(=O)[nH]c(=O)c2c1nc(CN(Cc1ccccc1)Cc1ccccc1)n2CCN1CCOCC1,127.3%
Cc1cc2c3c(c1)C1(C(=O)N3C(C)(C)CC2C)C(C#N)=C(N)Oc2cc(O)ccc21 (stereo unspecified),32.8%
O=C(CCn1c(=O)oc2ccccc21)N1CCN(C(c2ccccc2)c2ccccc2)CC1,82.8%
Cc1cccc(CS(=O)(=O)Cc2ccc(C(=O)NCCCN3CCOCC3)o2)c1,-17.4%
CCOCc1cc(C)[nH]c(=O)c1C#N,4.4%
O=C(NC(Cc1ccccc1)C(=O)O)OCc1ccccc1 (stereo unspecified),-2.4%
